LT uptake inh = blocks cellular internalization of anthrax lethal toxin | 70,000 tested, 0.67% active | AID 912 | Cells, anthrax lethal toxin internalization, FRET ratio (460/530) | Potency, µM (series often up to 40 µM), for inactives: at the highest dose activity change, negative = inhibition, most hits filed as inhibitors; active = well fitted falling ratio curve with the 530 nm signal flat; inconclusive = other ratio curves, or a change in one channel alone; inactive = flat curves in the ratio and both channels; the % refers to the ratio; note: % is set by controls: 0 for no effect and ±100 for the full control effect; nearly all actives have a fitted effect of over 50% in size; tested in ME-180 cells; beta-lactamase reporter
SmPrx2 inh = Schistosoma mansoni Prx2 inhibition; Potency, µM; 65,000 tested, 0.07% active; AID 448; S. mansoni Prx2 activity coupled to TGR/GSH (TGR is thioredoxin glutathione reductase), NADPH fluorescence loss, qHTS; some inactives read as strong as hits; active means full or partial inhibition curve with a strong effect at the top dose; inconclusive means weaker partial or single-point curve; inactive means no accepted curve; note: series up to 57 µM; many of its hits are not listed in these tables
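Coupled assay in which S. mansoni TGR passes NADPH reducing equivalents via glutathione to Prx2, which reduces H2O2. Compounds were preincubated 15 min at room temperature with 25 nM TGR/50 nM Prx2 mix. Kinetic NADPH fluorescence loss (ex 365/em 450 nm) was monitored.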
Numbers without * were called inactive; ? = inconclusive; nt = not tested or not shown; & = joins results of further samples; [ ] = remark or other dose. Potency is the fitted concentration of half-maximal effect.

mol,LT uptake inh,SmPrx2 inh
COC(=O)c1ccccc1NC(=O)C(C)Oc1ccccc1 (centres undefined),-10%,>57
Cc1csc(NC(=O)c2ccoc2C)n1,1%,>57
CCCc1n[nH]c2c1/C(=N/O)CC(c1ccccc1)C2 (centres undefined),?,>57
O=C(Nn1cnnc1)C(Sc1ccccc1)c1ccccc1 (centres undefined),?,>57
CC(C)COc1ccc(C2NC(=O)NC2=O)cc1 (centres undefined),?,>57
CC#C[C@]1(O)CC[C@H]2[C@@H]3CCC4=CC(=O)CCC4=C3[C@H](c3ccc(N(C)C)cc3)C[C@@]21C,?,>57
CCOc1ccc(N(CC(=O)NCc2ccccc2OC)S(C)(=O)=O)cc1,-9%,>57
CN(C1CCS(=O)(=O)C1)S(=O)(=O)c1ccc(C2CCCCC2)cc1 (centres undefined),-17%,>57
O=C(C1CCC(CNc2c(N3CCCCC3)c(=O)c2=O)CC1)N1CCc2ccccc2C1 (centres undefined),?,>57
CS(=O)(=O)N(CC(=O)NCCSc1ccccc1)c1ccc2c(c1)OCO2,-4%,>57
N#CCCn1c(=O)c(-c2cc(F)cc(F)c2)nc2cnc(N3CCOCC3)nc21,?,>57
O=C(CN1C(=O)C2CC=CCC2C1=O)Nc1nccs1 (centres undefined),?,>57
Cc1cc(=O)n2nc(N3CCCC3C(=O)NCc3ccccn3)sc2n1 (centres undefined),?,>57
COc1ccc(C(=O)N2CCC[C@@]3(CCN(c4cccc(-c5ccccc5)c4)C3)C2)cc1,-14%,>57
COC(=O)Nc1c(C)nn(Cc2ccccc2C)c1C,0%,>57
COC(=O)c1ccc(N2C(=O)CC(NCc3ccccc3)C2=O)cc1 (centres undefined),0%,>57
O=c1c(Cc2ccccc2O)c(O)nc2n1CCCS2,20%,>57
CCOc1ccc2cc(C#N)c(SCC(=O)N3CCC(C)CC3)nc2c1,1%,>57
O=C(COc1ccc(S(=O)(=O)NCc2ccccc2)cc1Cl)N1CCOCC1,6%,>57
CCC(=O)N1CCc2cc(Br)cc(S(=O)(=O)NCCN3CCCCC3C)c21 (centres undefined),0%,>57
CCOC(=O)N1CCN(C(=O)c2ccc3c(=O)n(CCc4ccccc4)c(=S)[nH]c3c2)CC1,-4%,>57
CCN1C(=O)c2cccc3c(NC(=O)c4cccc(N5C(=O)CCC5=O)c4)ccc1c23,-10%,>57
CCOc1ccccc1C1NC(=O)NC(C)=C1C(=O)OC1CCCCC1 (centres undefined),?,nt
O=C(NCc1ccco1)NCC(F)(F)F,4%,>57
O=C(CSc1ncn[nH]1)Nc1nc(-c2ccccc2)ns1,?,>57
Cc1c(N2C(=O)c3ccc4c5c(ccc(c35)C2=O)CC4)c(=O)n(-c2ccccc2)n1C,4%,nt
CCC(=O)c1ccc(OCC(O)CN2CC(C)OC(C)C2)cc1 (centres undefined),6%,>57
CCc1ccccc1NC(=O)c1nnn(CC(=O)Nc2cccc(C)c2)c1N,5%,>57
C=CCOC(=O)C1=C(C)N=C2SCCC(=O)N2C1c1ccc(OC(=O)c2ccco2)cc1 (centres undefined),-12%,nt
CCC1(C)Cc2ccccc2-c2nc3n(c(=O)c21)CC(C(=O)O)S3 (centres undefined),0%,>57
CC(=O)N(c1ccc(C)cc1)C1C=CS(=O)(=O)C1 (centres undefined),-5%,>57
COc1ccc(NC(=O)CCCN2C(=O)C3C4C=CC(C4)C3C2=O)c(OC)c1 (centres undefined),3%,>57
N#C[C@@H](N=Nc1ccccc1C(=O)O)C(N)=O,7%[8 µM],>57
CCSc1nnc(NC(=O)c2cccnc2)s1,3%,>57
COc1ccc(-c2nc(SCC(=O)N3CCOCC3)n[nH]2)cc1,3%,>57
CN1C(=O)N(C)C2(c3ccccc3)Nn3c(s/c(=C/c4ccco4)c3=O)=NC12c1ccccc1 (centres undefined),?,>57

Of the compounds above, 3 contain a cyano group:
mol,LT uptake inh,SmPrx2 inh
N#CCCn1c(=O)c(-c2cc(F)cc(F)c2)nc2cnc(N3CCOCC3)nc21,?,>57
CCOc1ccc2cc(C#N)c(SCC(=O)N3CCC(C)CC3)nc2c1,1%,>57
N#C[C@@H](N=Nc1ccccc1C(=O)O)C(N)=O,7%[8 µM],>57

Other records:
mol,LT uptake inh,SmPrx2 inh
COC(=O)C1CCN(S(=O)(=O)c2c(C)n(C)c(=O)n(C)c2=O)CC1,0%,>57
CCN1C(=O)[C@@H]2[C@H]3C(=CC[C@@H]2C1=O)C1(OCCCO1)[C@H]1O[C@@H]1[C@H]3O,-6%[8 µM],nt
O=C(Cc1ccccc1)CC1(O)C(=O)Nc2ccccc21 (centres undefined),8%,>57
COc1cccc(C(=O)Nc2ccc(S(=O)(=O)NCc3ccco3)cc2)c1,-21%,>57
COc1ccc(-n2c(N)c(-c3nc4ccccc4n3C)sc2=S)cc1,-6%,>57
CCOC(=O)c1c(CN2CCOCC2)oc2ccc(OC)cc12,-20%,>57
Cc1cc(OCCCC(=O)N2CCCCC2)cc(C)c1Cl,0%,>57
COc1ccc(NC(=O)COC(=O)c2ccc(N3CCCC3=O)cc2)cc1OC,2%,>57
COCCOC(=O)C1=C(C)NC(C)=C(C(=O)OC(C)C)[C@H]1c1cccc([N+](=O)[O-])c1,5%[3.58 µM],>57
Cn1cc(C(=O)c2ccc(Cl)cc2)cc1-c1nc2ccccc2n1C,13µM*,>57
Cc1cnc(NC(=O)C(C)N2C(=O)C3CC=CCC3C2=O)s1 (centres undefined),-4%,>57
COCCOC(=O)c1cc(C(=O)c2cc(F)ccc2O)coc1=N,?,>57
COc1ccccc1-c1nc(SCC(=O)O)n[nH]1,-11%,>57
O=c1[nH]cnc2cc(Cl)ccc12,-13%,>57
Cc1cnc(-c2nnc(N(C)C(=O)C3CCOC3)s2)cn1 (centres undefined),3%,>57
CC(C)N=C(N)/N=C(\N)Nc1ccc(Cl)cc1,0%[3.58 µM],>57
Cn1c(-c2ccc3c(c2)OCO3)cnc1NCc1ccccc1,-21%,>57
Cc1cc(C)nc(NC2=NCC(=O)N2c2ccc(F)c(Cl)c2)n1,15%,>57
O=c1cc(-c2ccccc2)[nH]c2nc(Cl)ccc12,?,>57
O=C1CCCCC1Sc1nnc(Cc2cccs2)n1CCc1ccccc1 (centres undefined),-22%,>57
CN1C(=O)C(O)(C2COC(C)(C)CC2=O)c2cc(Br)ccc21 (centres undefined),-24%,>57
O=c1c(-c2ccccc2)nc2cnc(Oc3ccccc3)nc2n1C[C@H]1CCCO1,?,>11
CCCCCOC(=O)Cc1c(O)c2ccccc2[nH]c1=O,0%,>57
CN1CCN(CC(=O)N(Cc2c(C#N)c3ccccc3n2C)c2ccccc2)CC1,2%,>57

Rewritten with two lines to a compound: part of the list above
Every second line gives: LT uptake inh	SmPrx2 inh
- Cn1c(-c2ccc3c(c2)OCO3)cnc1NCc1ccccc1
    -21%	>57
- Cc1cc(C)nc(NC2=NCC(=O)N2c2ccc(F)c(Cl)c2)n1
    15%	>57

Further compounds follow:
mol,LT uptake inh,SmPrx2 inh
CCC(=O)N(Cc1ccco1)c1nc(-c2cc(OC)ccc2OC)cs1,-7%,>57
Cc1oc(C(=O)O)cc1CSc1nnc(-c2ccccc2)n1C,-1%,>57
Cc1ccc(-n2c(=O)[nH]c3c(C(N)=O)nc(CC(C)C)nc32)cc1,0%,>57
CC1CN(c2cc(=O)n(-c3cccc(Br)c3)c(=O)[nH]2)CC(C)O1 (centres undefined),10%,>57
COc1ccc(-c2nc3cnc(N(C)C)nc3n(CCc3ccccc3)c2=O)cc1,?,>57
N#Cc1nc(-c2ccc(OCc3ccc(Cl)cc3)cc2)oc1N1CCOCC1,6%,>57
Cc1nc2cc(NC(=O)N3c4ccccc4CC3C)ccc2n1C (centres undefined),-8%,>57
Cc1cc(NC(=O)Cn2cnc3sc(C)c(-c4ccccc4)c3c2=O)no1,-19%,>57
CN(C(=O)Cc1ccc(Cl)c(Cl)c1)[C@@H](CN1CCCC1)c1cccc(OCC(=O)O)c1,?,>57&>57
CCOc1ccc(N2C(=O)CC(NCCc3ccc(S(N)(=O)=O)cc3)C2=O)cc1 (centres undefined),-4%,>57
CC(CCc1ccccc1)NC(=O)C1CCCN(C(=O)c2cc3sccc3n2C)C1 (centres undefined),-6%,>57
CCc1cccc(N(C)C(N)=Nc2cccc3ccccc23)c1,-6%,>57

Next section; it opens with the 2 that closed the last part.
mol,LT uptake inh,SmPrx2 inh
CC(CCc1ccccc1)NC(=O)C1CCCN(C(=O)c2cc3sccc3n2C)C1 (centres undefined),-6%,>57
CCc1cccc(N(C)C(N)=Nc2cccc3ccccc23)c1,-6%,>57
O=C(O)c1cccn1Cc1ccccc1F,?,>57
Cc1ccnc(SCC(=O)Nc2oc(-c3ccccc3)c(-c3ccccc3)c2C#N)n1,?,>57
COc1ccc(Cc2nnc(SCC(=O)NC3CCCCC3)n2C)cc1,-1%,>57
CCCS(=O)(=O)N1CCN(C(=O)c2cc(OC)cc(OC)c2)CC1,?,>57
Cc1cccc(N=C2NC(=O)/C(=C3/C(=O)N(C)c4ccccc43)S2)c1C,?,nt
CC(=O)NC1CC2CCCC(C1)N2CC(=O)NCc1ccc(F)cc1 (centres undefined),-11%,>57
COc1ccc(N2CCCn3c2nc2c3c(=O)n(Cc3ccccc3F)c(=O)n2C)c(OC)c1,2%,>57
O=C1OC(NC(=O)c2ccccc2)C(N2CCOCC2)=C1Cl (centres undefined),0%,>57
Clc1ccccc1-c1nnc2sc(CCc3ccccc3)nn12,-18%,>57
OC1(c2cccc(C(F)(F)F)c2)CCNCC1,21%,>57
CC(=O)N1CCC[C@@]2(CCN(c3ccccc3)C2)C1,17%,>57
COC(=O)NC(c1cccc(C)c1)[C@]1(C(C)=O)CCCC1=O (some centres undefined),-9%[8 µM],nt
CC1(C)C(=O)C2(CCCCC2)C(=O)OC1c1cccs1 (centres undefined),?,>57
CCCCNc1c(C(=O)OCC)c(C)nc2c1cnn2CC,?,>57&>57&>57
Cc1ccccc1C(=O)NCc1ccncc1,-1%,>57
Cc1ccc(CCN2CC(C(=O)NCCN3CCOCC3)CC2=O)cc1 (centres undefined),-1%,>57
CC[n+]1c(-c2ccccc2)c2cc(N)ccc2c2ccc(N)cc21,?,nt
Cc1cc(NC(=O)c2ccc3nc(C)sc3c2)no1,-2%,>57
COc1ccc(CN(CCN(C)C)Cc2ccccc2)c(OC)c1,0%,>57
CN(CC(=O)N1CCCCCC1)S(=O)(=O)c1ccc(Br)s1,?,>57
CSCC[C@H](NC(=O)Nc1ccc(C)cc1C)C(=O)O,nt,>57
CCCNC(=O)CC1Sc2ccccc2NC1=O (centres undefined),25%,>57
CCS(=O)c1ccccc1C(=O)O (centres undefined),?,>57
COC(=O)c1ccc(C(NC(=O)OCc2ccccc2)/C(I)=C/[C@@H](C)C(=O)Nc2ccccc2)cc1 (some centres undefined),-14%,nt
CSc1nc(-c2ccco2)cc(-c2ccccc2)c1C#N,-14%,>57
Cc1onc(-c2c(F)cccc2Cl)c1C(=O)OCn1nnc2ccccc2c1=O,-1%,nt
CCOC(=O)c1cccc(NC(=O)CSc2nnc(-c3cccnc3)n2C)c1,0%,>57
Oc1ccc(Cl)cc1,-1%,nt
COCCNC(=O)C(c1ccccc1)N(Cc1cccs1)C(=O)Cn1nnc2ccccc21 (centres undefined),0%,>57
Cc1nnc(NC(=O)C2CCCN(S(=O)(=O)c3ccccc3C(F)(F)F)C2)s1 (centres undefined),-10%,>57
Cc1cc(C)n(-c2nc3ccccc3c(=O)n2OCC(=O)N(C)C)n1,7%,>57
Cc1nnc(C)c2c(C)n(-c3ccc(Br)cc3)c(C)c12,-6%,nt
CCc1nnc(NC(=O)CSc2nnc(COc3ccc(C)cc3)n2-c2ccccc2)s1,-7%,>57
Nc1nonc1C(=O)NCCNCc1cc(Br)ccc1OCc1ccc(F)cc1,?,>57
CCNc1nc(Oc2ccc(C(=O)OC)cc2)nc(SC)n1,-5%,>57
Cc1ccc(C)n1-c1ccc(N2CCOCC2)nc1,-13%,>57
CCCSc1nc(N)cc(=O)[nH]1,4%,>57
Cc1ccc(C(C(=O)NCc2ccco2)N(Cc2ccco2)C(=O)CNC(=O)c2ccco2)cc1 (centres undefined),-16%,>57
CCOc1ccc(CNC(=O)C2CCN(S(=O)(=O)N3CCCC3)CC2)cc1OC,-7%,>57
CCc1ccc(CNc2ccc(O)cc2)cc1,-18%,>57
O=C(Nc1sc2c(c1C(=O)NCc1cccnc1)CCCC2)c1ccco1,-5%,nt
O=C(NCCc1ccc(Cl)cc1)C1CCN(S(=O)(=O)N2CCCCC2)CC1,-1%,>57
CN/C(=C\[N+](=O)[O-])NCCSCc1ccc(CN(C)C)o1,6%,>57&>57&>57
Cc1ccc2c(c1)C1CN(C)CCC1N2C(=O)Cc1cccs1 (centres undefined),-7%,>57

The list is partial, so the mix of outcomes need not match the whole.
